High-throughput results from PubChem BioAssay.
TRPML1 blocker: inhibitors of human TRPML1 channel; Q9GZU1; 0.02% of 390,000 active; activity change, negative = inhibition, % (concentration not given with the values); TRPML1-inducible cells, Ca2+ dye fluorescence, FDSS; hits give low values; inhibition of EC80 agonist-evoked calcium signal; in the data active means activity change below about -50%; inconclusive means about -30% to -50%; inactive means above about -30%;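 further: stimulus is agonist 54-4 at its EC80 concentration; on the % scale 0 is the no-effect control and ±100 the full control effect; compound concentration not given in the record; the text of the record puts the active cut at -80%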
Target sequence (Q9GZU1 whole entry, looked up): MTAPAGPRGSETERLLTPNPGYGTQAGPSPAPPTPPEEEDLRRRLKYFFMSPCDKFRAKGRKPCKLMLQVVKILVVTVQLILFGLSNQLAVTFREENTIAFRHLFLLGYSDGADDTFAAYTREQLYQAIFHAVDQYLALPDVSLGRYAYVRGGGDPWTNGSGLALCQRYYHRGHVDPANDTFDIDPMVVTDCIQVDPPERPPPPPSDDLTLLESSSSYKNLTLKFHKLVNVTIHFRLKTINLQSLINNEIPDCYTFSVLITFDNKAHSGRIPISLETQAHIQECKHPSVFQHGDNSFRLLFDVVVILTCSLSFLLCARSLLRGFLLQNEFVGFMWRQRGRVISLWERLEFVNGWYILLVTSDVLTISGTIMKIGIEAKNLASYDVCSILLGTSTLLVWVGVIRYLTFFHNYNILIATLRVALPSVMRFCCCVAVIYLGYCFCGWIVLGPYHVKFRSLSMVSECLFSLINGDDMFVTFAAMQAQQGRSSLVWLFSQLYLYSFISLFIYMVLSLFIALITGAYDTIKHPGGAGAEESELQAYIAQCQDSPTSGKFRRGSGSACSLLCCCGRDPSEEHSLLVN
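Tet-induced TRPML1-DL cells loaded with Ca8 no-wash calcium dye were read kinetically on FDSS. Compound addition was followed by EC80 agonist 54-4 (4 uM final); inhibition was read over 110 s.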
TRPML1 ag: human mucolipin-1 channel agonism; AID 624414; 0.12% of 410,000 active; Q9GZU1; activation, % (concentration not given with the values); TRPML1-expressing cells, Ca2+ dye fluorescence, FDSS; host cell line not named in the record; reference of the full effect not given here; in the data active = activation above about 50%; inconclusive = about 30% to 50%; inactive = below about 30%; further: 0% is about no effect; the text of the record puts the active cut at 80%
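TRPML1-DL cells, Tet-induced overnight (~16 h, 37 degrees C), loaded 45-90 min at room temperature with Ca8 no-wash calcium dye plus quencher. FDSS fluorescence: 10 s baseline, compound pin-transfer, 110 s agonist read, then EC80 54-4 (4uM final) and 110 s antagonist read.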
D2 PAM: potentiates the human D2 dopamine receptor allosterically | 0.23% of 360,000 active | potentiation, % (test concentration not listed) | DiscoveRx D2 beta-arrestin cells, luminescence, 90 min; 100% = 57 uM dopamine signal; active = potentiation of 50% or more; inconclusive = 30% to 50%; inactive = 30% or less;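 further: compound concentration not given in the record; tested on top of an EC20 dose of dopamine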
Target sequence (P14416 whole entry, looked up): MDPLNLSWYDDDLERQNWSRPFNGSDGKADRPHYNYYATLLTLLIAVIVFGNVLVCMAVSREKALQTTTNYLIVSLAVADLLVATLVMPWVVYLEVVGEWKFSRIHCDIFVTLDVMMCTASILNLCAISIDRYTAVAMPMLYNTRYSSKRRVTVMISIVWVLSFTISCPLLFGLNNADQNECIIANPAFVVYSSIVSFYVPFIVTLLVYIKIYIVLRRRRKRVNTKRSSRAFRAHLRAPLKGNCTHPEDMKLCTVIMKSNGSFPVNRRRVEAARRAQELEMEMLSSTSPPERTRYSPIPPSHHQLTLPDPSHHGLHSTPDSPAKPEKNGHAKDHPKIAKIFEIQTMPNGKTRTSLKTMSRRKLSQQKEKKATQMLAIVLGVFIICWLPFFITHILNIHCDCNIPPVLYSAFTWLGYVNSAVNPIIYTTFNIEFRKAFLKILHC
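PathHunter beta-arrestin assay in DiscoveRx D2 cells. Compounds were added with an EC20 of dopamine (50 nM final) for 90 min at 37 deg C. Luminescence was read 1 h after detection reagent, with 57 uM dopamine as the EC100 control.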
Six1-Eya2 inh: blocks human Six1 binding to Eya2; Q15475+O00167; AlphaScreen GST-Six1/His-Eya2 binding, biochemical; hits give low values; control for the full effect not named in the record; activity change, % (no concentration beside the values); 0.56% of 360,000 active; in the data active = activity change below about -65%; inconclusive = about -30% to -65%; inactive = above about -30%; further: on the % scale 0 is the no-effect control and ±100 the full control effect; compound concentration not given in the record
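AlphaScreen luminescence read after one hour at 37 °C in darkness. Pin-transferred compounds met GST-Six1 and His-Eya2 protein (5X stock 250 nM/500 nM) plus glutathione donor and Ni-chelate acceptor beads (5X, 50 ug/mL).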
CtBP-E1A inh: inhibitors of CtBP/E1A interaction; AlphaScreen GST-E1A/His-CtBP binding, 1536-well; hits give low values; control for the full effect not named in the record; activity change, % (concentration not given with the values); 0.49% of 340,000 active; AID 651724; in the data active means activity change below about -65%; inconclusive means about -30% to -65%; inactive means above about -30%; further: on the % scale 0 is the no-effect control and ±100 the full control effect
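AlphaScreen with 125 nM GST-E1A and 125 nM His-CtBP (5X stocks) in Tris pH 8.0, 300 mM NaCl, BSA, Tween 20, TCEP. Compounds preincubated 2 h at 37 deg C, then glutathione donor/nickel acceptor beads added for 1 h at 37 deg C in dark.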
TRPV1 potentiator: potentiators of human vanilloid receptor 1 (TRPV1) | Q8NER1 | TRPV1-expressing cells, Fluo-8 calcium influx, capsaicin EC20 potentiation; host cell line not named in the record; control for the full effect not named in the record | potentiation, % at 8.33 µM | 0.02% of 320,000 active; active means potentiation above 80%; inconclusive means 30% to 80%; inactive means below 30%; further: 0% is about no effect
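Cells expressing TRPV1 were dye-loaded with Fluo-8 and read kinetically: 10 s baseline, 3 min after compound (agonist portion), then 2 min after EC20 capsaicin (allosteric enhancer portion). Calcium-bound dye fluorescence at 480/520 nm.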
Numbers without * were called inactive; ? = inconclusive; . = not tested or not shown. Rows were taken by chance; about 0.95% have a hit in one of these screens.

No.	molecule	TRPML1 blocker	TRPML1 ag	D2 PAM	Six1-Eya2 inh	CtBP-E1A inh	TRPV1 potentiator
1	COc1ccc(CCCC(=O)Nc2ccc(F)cc2)cc1	18	1.0	8	12	5	-6
2	O=S(=O)(CCN1CCSCC1)c1ccc(Cl)cc1	5	0.4	-5	-3	-5	-5
3	CCc1nc(N2CCN(C(=S)NCCCOC)CC2)c2c3c(sc2n1)CCCC3	9	0.7	-21	-21	-10	2
4	CCc1nc2ccccc2n1Cc1ccccc1OC	27	1.1	-2	1	-1	12
5	Cc1ccc(OCc2cc(C(=O)N(C)CCn3ccnc3C)no2)cc1C	0	0.6	-10	0	4	.
6	O=C(CCc1cn2ccccc2n1)NC1CCCc2c1cnn2-c1ccccc1F (configuration not stated)	12	-1.1	-15	0	2	5
7	O=C1c2ccccc2C(c2nnnn2Cc2ccccc2)N1Cc1ccc2c(c1)OCO2 (configuration not stated)	.	-0.3	.	5	1	.
8	Cc1cc(C(=O)COc2ccccc2C(N)=O)c(C)n1C	-7	-0.3	-6	-14	10	-2
9	COc1ccc(CNC(=O)COC(=O)c2n[nH]c3ccccc23)cc1OC	6	2.4	-6	3	-14	6
10	COc1cc(C(=O)NC(c2ccccc2)c2ccccc2)cc(OC)c1C	19	0.4	-7	2	3	-14
11	CCCCn1c(SCC(=O)NCc2ccccc2)nc2ccc(N3CCOCC3)cc2c1=O	-13	0.2	12	-1	3	12
12	Nc1nc(SCC(=O)NCc2ccco2)[nH]c(=O)c1-c1ccccc1	3	0.2	-1	3	33	3
13	Cc1ccc(C(=O)NCc2ccco2)cc1S(=O)(=O)N1CCCCC1	-5	-0.4	8	-9	-4	-13
14	COc1ccc(-c2cc(NC(C)=O)c3ncc(-c4ccc(F)cc4)n3c2)cc1OC	4	0.1	-16	-1	-9	.
15	Cn1nc(C(C)(C)C)cc1C(=O)N1CCCCC1c1cc(C(=O)Nc2cccc(C#N)c2)no1 (configuration not stated)	.	-0.3	-5	-7	-6	.
16	O=C(COc1ccccc1[N+](=O)[O-])NCCC1=CCCCC1	-20	0.0	-5	-2	-4	-4
17	O=C(Nc1cccc(F)c1)Nc1nnc([C@@H]2O[C@H](CO)[C@@H](O)[C@H]2O)s1	.	0.0	1	-4	4	.
18	CCNC(=O)C1=C(O)c2sccc2N(C)S1(=O)=O	-5	-0.9	-5	12	.	-7
19	CCN(CC(=O)Nc1cc(Cl)ccc1C)C(=O)C1CCCCC1	16	-1.6	19	2	19	13
20	COc1ccc(Cl)cc1NC(=O)N1CCN(S(C)(=O)=O)CC1	9	1.5	-8	3	-3	1

An excerpt from above in order of length of the SMILES, largest number first.
No.	molecule	TRPML1 blocker	TRPML1 ag	D2 PAM	Six1-Eya2 inh	CtBP-E1A inh	TRPV1 potentiator
15	Cn1nc(C(C)(C)C)cc1C(=O)N1CCCCC1c1cc(C(=O)Nc2cccc(C#N)c2)no1 (configuration not stated)	.	-0.3	-5	-7	-6	.
11	CCCCn1c(SCC(=O)NCc2ccccc2)nc2ccc(N3CCOCC3)cc2c1=O	-13	0.2	12	-1	3	12
13	Cc1ccc(C(=O)NCc2ccco2)cc1S(=O)(=O)N1CCCCC1	-5	-0.4	8	-9	-4	-13
16	O=C(COc1ccccc1[N+](=O)[O-])NCCC1=CCCCC1	-20	0.0	-5	-2	-4	-4
19	CCN(CC(=O)Nc1cc(Cl)ccc1C)C(=O)C1CCCCC1	16	-1.6	19	2	19	13

One compound at a time, from the list above:
Profile of CCN(CC(=O)Nc1cc(Cl)ccc1C)C(=O)C1CCCCC1 = TRPML1 blocker = 16; TRPML1 ag = -1.6; D2 PAM = 19; Six1-Eya2 inh = 2; CtBP-E1A inh = 19; TRPV1 potentiator = 13
Profile of Nc1nc(SCC(=O)NCc2ccco2)[nH]c(=O)c1-c1ccccc1 = TRPML1 blocker = 3; TRPML1 ag = 0.2; D2 PAM = -1; Six1-Eya2 inh = 3; CtBP-E1A inh = 33; TRPV1 potentiator = 3

The list continues:
No.	molecule	TRPML1 blocker	TRPML1 ag	D2 PAM	Six1-Eya2 inh	CtBP-E1A inh	TRPV1 potentiator
21	O=C(NCc1cccs1)C1CCCN(S(=O)(=O)c2cnc[nH]2)C1 (configuration not stated)	6	-0.4	-10	-4	3	3
22	CC(C)NC(=O)N(C)C[C@@H]1Oc2ccc(NC(=O)Nc3ccc(C(F)(F)F)cc3)cc2CC(=O)N([C@H](C)CO)C[C@@H]1C	3	0.2	8	-1	3	.
23	O=C(Cn1ccc(NC(=O)OCc2ccccc2)nc1=O)NCc1ccccn1	2	-0.6	-7	-9	1	4
24	COc1ccccc1C1CCN(Cc2ccc3ccccc3c2)CC1	96	0.7	-16	-8	3	-9
25	Cc1ccc(-c2nnc(SC(C)C(=O)NCC3CCCO3)nc2-c2ccc(C)cc2)cc1 (configuration not stated)	0	1.3	-8	-8	-21	-32
26	COC(=O)c1sccc1NC(=O)Nc1cccc(Cl)c1Cl	-9	-1.0	28	2	-2	-12
27	CCOc1cc(-c2noc(CCC(=O)Nc3cccnc3)n2)ccc1OC	2	0.8	-8	-2	-1	4
28	CC1(C(=O)Nc2ccc(Cl)c(C(F)(F)F)c2)Cc2c(-c3ccc(C(N)=O)cc3)ccnc2O1 (configuration not stated)	.	-0.7	10	?	?	.
29	CCOC1=C2[C@@H](CN(S(=O)(=O)c3ccc(C)cc3)[C@H]2c2cccc3ccccc23)[C@H]2C(=O)N(CC)C(=O)[C@H]2C1	.	-0.6	2	-10	-5	.
30	Cc1cccc(NC(=O)NC(C)C(c2ccccc2)N2CCN(C)CC2)c1 (configuration not stated)	-8	-0.2	-21	3	7	23
31	CCCCN=C1N/C(=C\c2ccco2)C(=O)N1c1ccccc1	-14	-1.0	-11	-20	-5	-1
32	CC1(C)C2CCC1(C)C(OCCNCCOC(=O)Nc1ccccc1)C2 (configuration not stated)	.	.	-13	5	1	-22
33	Cc1c(Cl)cn2c(=O)cc(CN3CCN(c4ccccc4)CC3)nc2c1Cl	8	-0.5	-15	-3	.	27
34	COc1cc(C=NNC(=S)Nc2ccc(S(=O)(=O)N3CCCCC3)cc2)cc(OC)c1OC	-8	-0.6	-9	?	2	.
35	CC(=O)C1=C(O)C(=O)N(C2CCCCC2)C1c1ccccc1 (configuration not stated)	11	-1.3	4	24	0	-3
36	COc1ccc(C2C(C#N)=C(N)OC3=C2C(=O)CC(C)(C)C3)c([N+](=O)[O-])c1OC (configuration not stated)	3	1.7	-12	-3	-2	.
37	CCc1cc(=O)oc2c(CNCc3ccc(OC)cc3OC)c(O)c(Cl)cc12	21	-0.4	-8	3	9	19
38	CCCCS(=O)c1snnc1C (configuration not stated)	4	0.3	-6	5	6	-15
39	O=c1c2cc(NC(=S)N3CCCCCC3)ccc2nc2n1CCCCC2	-6	-0.2	-8	3	-3	-15
40	CCn1c(O)c(C(C#N)=C2N=c3ccccc3=N2)c2ccccc21	-10	0.2	11	0	9	4

The results go on:
no.	structure	TRPML1 blocker	TRPML1 ag	D2 PAM	Six1-Eya2 inh	CtBP-E1A inh	TRPV1 potentiator
41	CCOC(=O)c1ccc(OC)c(OC)c1Cl	8	1.9	-4	4	.	-6
42	Cc1[nH]c2ccc(C(=O)NCCCN3CCCC3)cc2c1C	5	0.7	-15	-4	.	-6
43	C=CCn1c(Cc2cccs2)nnc1SCC(=O)Nc1ccc(OC)c(OC)c1	0	-0.2	-6	-2	-9	3
44	Cc1c(NC(=O)c2cc(-c3ccccc3)on2)c(=O)n(-c2ccccc2)n1C	4	-0.5	-17	0	5	2
45	CCCNC(=O)c1nn2cc(Br)cnc2c1Cl	-4	-1.0	-6	0	-11	-19
46	CCCN(CC(=O)Nc1ccccc1C)C(=O)c1ccc(N2CCCCCC2)c([N+](=O)[O-])c1	-16	0.6	-22	-18	-17	1
47	COc1ccc(-n2nc(C(=O)NCC(=O)NCCCN3CC(C)CC(C)C3)c3ccccc3c2=O)cc1Cl (configuration not stated)	-6	0.8	-3	2	-7	-8
48	O=C(CSc1ncnc2c1oc1ccccc12)N1CCN(c2ccccc2)CC1	-15	-0.4	-3	1	4	.
49	CCCC(=O)Nc1c(-c2ccccc2)c(=O)c(C)nn1-c1ccccc1	42	1.6	-1	7	1	2
50	CC(=O)Nc1ccc(NC(=O)C(C)OC(=O)CCCN2C(=O)c3cccc4cccc(c34)C2=O)cc1 (configuration not stated)	-13	-0.7	0	-2	-14	28
51	O=C(Nc1cccc(Cl)c1)c1cc(F)cc2c1OCOC2	-7	0.8	-8	6	-1	-5
52	O/N=C(\Cn1ccnc1)c1ccccc1	10	-0.8	-2	2	8	.
53	CC1(C)Cc2ccccc2C(C(=O)c2ccccc2)=N1	5	1.6	6	-4	3	4
54	Cn1c(Cn2c(C(F)(F)F)nc3ccccc32)nc2ccccc21	-7	-0.5	0	-2	-6	7
55	COc1ccccc1N1CCN(C(=O)c2cc(C(C)(C)C)oc2C)CC1	12	0.6	-2	-8	-13	?
56	CCCSc1nnc(NC(=O)c2sc3nc(-c4cccs4)ccc3c2N)s1	1	3.2	1	-2	1	-13
57	CSc1ccc(CN2CCC(Cc3ccccc3)CC2)cc1	.	.	-83	-7	.	-18
58	O=C(/C=C/c1ccc2c(c1)OCO2)NCCSCc1ccc(Cl)cc1	-8	-0.6	13	-14	-1	-3
59	[2H]c1c([2H])c([2H])c(-c2nc(N3CCCCCC3)sc2C(=O)c2ccccc2)c([2H])c1[2H]	7	1.2	-4	27	49	-17
60	C=CC[C@@H](CC(=O)N[C@H](CO)Cc1ccccc1)C(=O)N[C@@H](C)COC(=O)[C@@H](CC=C)Cc1ccc(F)cc1	-10	-0.1	-6	6	.	.
61	O=c1cc(-c2ccccc2)nc2c(Cl)cc(Cl)cn12	3	-1.1	-4	7	2	.
62	CC(NC(=O)CCNS(=O)(=O)c1ccccc1)c1ccccc1 (configuration not stated)	-14	0.0	4	9	-4	3
63	COc1ccc(/C=N/NC(=O)c2cccc3ccccc23)c(OC)c1OC	18	1.1	-9	3	4	.
64	CCN1CN(CCc2ccccc2)CNC1=S	-16	-0.6	-7	0	7	0
65	Cc1ccc(NS(=O)(=O)c2ccc(C(=O)NCc3ccncc3)cc2)cc1	-2	7.5	9	-6	2	?
66	Cc1ccc(S(=O)(=O)N2CCCC2CNC(=O)C(=O)NCc2cccs2)cc1 (configuration not stated)	-17	0.8	-23	-3	4	2
67	CCc1ccc(OCC(=O)N/N=C(\C)c2ccc(-n3ccnc3)cc2)cc1	-7	0.5	-24	-25	-17	5
68	Cc1cc(C(=O)N2C(C)CCCC2C)no1 (configuration not stated)	20	0.1	-3	4	0	-4
69	COc1ccc(N(CC(=O)NCCSCc2ccco2)S(=O)(=O)c2ccccc2)cc1OC	-5	0.5	-1	-18	1	5
70	O=c1c2ccccc2oc2cc(OCc3ccc(F)cc3)cc(O)c12	13	1.3	-3	1	-2	9
71	Cc1ccc(C)c(NC(=O)CCC(=O)NNC(=O)c2cccs2)c1	-8	-0.3	0	2	15	0
